2A Renilla = lowers the Renilla signal of an FMDV 2A StopGo reporter; HEK cells with a luciferase reporter of 2A StopGo recoding; Potency, µM (highest dose often 57.5 µM), without a hit: at the highest dose signal change, negative = less light; 0.32% of 120,000 active; AID 1745857; active means well fitted falling curve with a large enough effect; inconclusive means small, poorly fitted or top-dose-only effect; inactive means no such curve, though single readings can be large or run the other way; note: nearly all actives have a fitted effect of over 55% in size; overnight with compound
StopGo FLuc = FMDV 2A StopGo reporter, firefly signal; HEK cells with a luciferase reporter of 2A StopGo recoding; Potency, µM (series often up to 57.5 µM), for inactives: at the highest dose signal change, negative = less light; 0.23% of 120,000 active; AID 1745856; active = well fitted falling curve with a large enough effect; inconclusive = small, poorly fitted or top-dose-only effect; inactive = no such curve, though single readings can be large or run the other way; note: nearly all actives have a fitted effect of over 60% in size; overnight with compound
* marks the source's active call; other numbers are inactive results; ? = inconclusive; [ ] = dose if it differs, or a comment. % is set by controls: 0 for no effect and ±100 for the full control effect; potency is the fitted concentration of half-maximal effect. A portion of the library (hit frequency here may not be typical).

SMILES	2A Renilla	StopGo FLuc
CCOc1cc2c(cc1NC(=O)Cc1ccc(OC)cc1)OC(C)C2 (stereo unspecified)	0%	14%
Cc1ccccc1-n1nnc(C(=O)NC(C)C)c1N	-13%	12%
NC(=O)C1CCN(C(=O)CCc2nc3sc4c(c3c(=O)[nH]2)CCCC4)CC1	-16%	9%
COc1ccc(NC(=O)Cn2c(=O)n(Cc3ccc4c(c3)OCO4)c(=O)c3ccc(C(=O)NC4CCCCC4)cc32)cc1	-5%	-4%
CCCCOc1ccccc1C(=O)N1CCC(c2nc3ccccc3o2)CC1	?	?
CCOC(=O)C1CCN(C(=O)c2ccc(CN(c3ccccc3)S(C)(=O)=O)cc2)CC1	-9%	-1%
Cc1ccc(Cn2c(Br)nc3c2c(=O)n(C)c(=O)n3C)cc1	4%	9%
COc1ccc(-c2onc(C)c2C)cc1S(=O)(=O)NC1CCC(C)CC1 (stereo unspecified)	5%	?
O=C(NCCNC(=O)c1c[nH]c2ccccc12)c1ccncc1	-14%	-20%
CCc1ccc(S(=O)(=O)N(C(=O)c2ccncc2)c2ccc3oc(C)c(C(=O)OC)c3c2)cc1	2%	?
COc1cccc(NS(=O)(=O)c2ccc3[nH]cc(C(=O)N4CCCCCC4)c(=O)c3c2)c1	-11%	-11%
COc1ccc(Br)cc1/C=C(\C#N)C(N)=C(C#N)C#N	-1%	37%[activator]
Cn1ccnc1C(NC(=O)Nc1ccc(F)cc1)c1ccccc1F (stereo unspecified)	-6%	-6%
CN(C1CCCCC1)S(=O)(=O)c1ccc(F)c(C(=O)Nc2ccc(C(F)(F)F)cc2)c1	?	?
COc1cc(OC)c(NC(=O)N2CCN(c3ccc(=O)n(-c4ccc(F)cc4)n3)CC2)cc1Cl	1%	11%
CCOC(=O)N1CCN(C(=O)Cn2nc(-c3ccccc3F)ccc2=O)CC1	-14%	-5%
CCN(c1ccc(NC(=O)Cn2cnc3c2c(=O)n(C)c(=O)n3C)cc1)C(C)C	-14%	4%
O=C(CSc1nc2sccc2c(=O)n1-c1ccccc1)NC1CCCC1	19%	9%
CSCCC(NC(=O)CCNC(=O)c1ccccc1)c1nnc2ccccn12 (stereo unspecified)	-9%	-1%
O=C(Nc1cccc(-c2nc3ccccc3s2)c1)[C@@H]1CCCN1C(=O)c1cccs1	43%[activator]	18%
CC(=O)N1c2ccccc2CC1C(=O)NCc1cccc(Cl)c1 (stereo unspecified)	-6%	46%[activator]
Cc1ccc(C)c(N2C(=O)N(C)c3ccccc3S2(=O)=O)c1	0%	-13%
COc1ccc(-n2nnnc2C(C)(C)Nc2ccc(C)cc2)cc1OC	45%[activator]	-2%
COc1ccc(C(C)NC(=O)CCc2ncc(-c3c(F)cccc3F)o2)cc1F (stereo unspecified)	1%	6%
O=C(CN1C(=O)c2ccccc2S1(=O)=O)c1ccc(F)cc1	13%	11µM*

(list continues)
SMILES	2A Renilla	StopGo FLuc
Cc1ccc(NC(=O)CCN2C(=O)c3ccccc3Sc3ncccc32)c(Cl)c1	10%	-12%
CCC(NC(=O)C(C)c1ccc(-c2ccccc2)c(F)c1)C(=O)O (stereo unspecified)	5%	22%
O=C(Cn1cc(S(=O)(=O)Cc2cccc(Cl)c2)c2ccccc21)Nc1ccc(F)c(Cl)c1	31%[activator]	44%[activator]
Cc1ccc(S(=O)(=O)N2CCN(c3nc(-c4cccnc4)nc4ccccc34)CC2)cc1	-1%	13%
COc1cc2c(cc1OC)[C@H](C)N(C(=O)c1ccc(F)cc1)CC2	-3%	10%
COc1ccc(Cl)cc1NC(=O)Cn1c(=O)n2nc(-c3ccccc3)nc2c2ccccc21	-12%	-9%
O=C(CSCc1coc(-c2ccc(Cl)cc2)n1)NC1CCCCCC1	?	?
CN(C)c1ccc(-c2nc(-c3ccco3)no2)cc1[N+](=O)[O-]	4%	-32%
CCn1nnc2cc(C(=O)Nc3ccc(OC)cc3)ccc21	-4%	121%[activator]
CCOc1ccc(NC(=O)c2cc3cc4cc(OC)ccc4nc3s2)cc1	-10%	-18%
Cc1ccc(C(=O)/C(=C/c2ccc(F)cc2)c2nc3ccccc3o2)cc1	-14%	0%
CCOC(=O)c1ccc(NC(=O)c2ncoc2-c2cccc(OC)c2)cc1	10%	29%
Cc1cc(Br)ccc1NC(=O)c1sc2nc3n(c(=O)c2c1C)CCCC3	0%	-10%
CC(C)c1nnc(NC(=O)NCC(O)c2ccc(F)cc2)s1 (stereo unspecified)	-17%	39%[activator]
CCN(CC)CCCNC(=O)CCc1c(C)nc2c(c1C)c(=O)n(C)c(=O)n2C	-15%	-31%
COc1cccc(-c2nc(CS(=O)(=O)CC(=O)NCCCN3CCOCC3)c(C)o2)c1	14%	19%
COC(=O)CCNC(=O)N1CCN(c2nnc(C)c3c(C)n(-c4ccccc4)nc23)CC1	-9%	-15%
CCN(Cc1ccccc1)S(=O)(=O)c1ccc(-c2coc(C)n2)cc1	27%	12%
CCCCc1ccc(-c2cc(C(=O)NC3CC3)c3cc(Br)ccc3n2)cc1	-5%	-8%
O=C(COc1ccc(F)cc1)Nc1ccc2nc(SCC(=O)N3CCc4ccccc43)sc2c1	-6%	-12%
COc1ccc(-c2nc(C)c(CCNC(=O)C(=O)Nc3ccc(F)cc3F)s2)cc1OC	-4%	27%
COc1cccc2cc(C(=O)Nc3ccccc3O)c(=O)oc12	12%	149%[activator]
COc1ccc(-c2nc3cc(C(C)C)ccc3o2)cc1NC(=O)COc1ccc(C)cc1C	-6%	10%
CCc1cccc(NC(=O)Cn2c(=O)c3c(ncn3C3CCCC3)n(Cc3ccccc3)c2=O)c1	17%	17%
N#Cc1nc(-c2ccco2)oc1NCc1ccc(Cl)cc1	129%[activator]	45%[activator]

More records
SMILES	2A Renilla	StopGo FLuc
COc1ccc(Br)cc1CN1CCCC(C(=O)N2CCCCC2)C1 (stereo unspecified)	2%	1%
COc1ccc(-n2nc(C)c3c2NC(=O)CSC3c2cccc(O)c2)cc1 (stereo unspecified)	2%	11%
Cn1c(=O)c2c(ncn2CC(=O)N2CCN(C(c3ccccc3)c3ccccc3)CC2)n(C)c1=O	-9%	-2%
O=C(O)c1ccccc1NCCc1ccccc1	54%[activator]	6%[11.5 µM]
Cc1ccc(NC(=O)C(Sc2ccccc2)c2ccccc2)cc1C (stereo unspecified)	63%[activator]	52%[activator]
Cc1cc2c(c(SCC(=O)Nc3cccc(C(F)(F)F)c3)n1)C(=O)OC2	6%	9%
CC(C)(CC(=O)O)CC(=O)Nc1ccccc1C(C)(C)C	6%	5%
CCOC(=O)CCNC(=O)NCCC1CCN(C(=O)Nc2cccc(Cl)c2)CC1	-7%	14%
O=C(O)/C=C/c1ccccc1OCc1ccccc1	3%	2%
COc1ccc(Br)cc1CNC(=O)C(C)n1nc(C)n2c(cc3occc32)c1=O (stereo unspecified)	8%	0%
Cc1cccc(NC(=O)CSc2nnc3[nH]c(=O)cc(C)n23)c1C	-3%	-9%
CCCCCN=C(N)N/N=C/c1c[nH]c2ccc(OC)cc12	-1%	-21%[11.5 µM]
Cc1ccc(-c2noc(COc3ccc(Br)c(C)c3)n2)cc1	-20%	-9%
CCn1nc(C(=O)OC(C)C(=O)Nc2cccc(S(=O)(=O)N(C)C)c2)c2ccccc2c1=O (stereo unspecified)	15%	3%
CCOc1ccccc1NC(C)C(=O)N(C)Cc1cccc(F)c1 (stereo unspecified)	-6%	-10%
O=C(c1ccc(Cl)c(Cl)c1)N(Cc1ccco1)c1ccc(O)cc1	?	?
Cc1noc(N)c1C(=O)OCc1csc(-c2ccc(F)cc2)n1	?	?
CC(C)NC(=S)NNC(=O)C1CC1	-3%[1.06 µM]	9%
COc1ccc(-c2nc(CS(=O)CC(=O)NCc3ccc(C)cc3)c(C)o2)cc1OC (stereo unspecified)	20%	8%
CCC(CC)c1nnc(NC(=O)c2cc(S(=O)(=O)N(C)C)ccc2Cl)s1	6%	3%
Cc1cc(N2CCN(c3ccc(F)cc3)CC2)n2cnnc2n1	-4%	-11%
COc1ccc(CNC(=O)c2cccc(-n3cnc4cccnc43)c2C)cc1	-10%	-3%
CCOc1cccc(/C=C2/Cc3c(O)cccc3C2=O)c1	-1%	122%[activator]
CSc1ccc(CCNC(=O)c2csc3c2CCCCC3)cc1	-4%	22%
CC1SC2(NC1=O)C1CC3CC2CC(O)(C3)C1 (stereo unspecified)	2%	14%

Among those listed so far, these contain a cyano group.
SMILES	2A Renilla	StopGo FLuc
COc1ccc(Br)cc1/C=C(\C#N)C(N)=C(C#N)C#N	-1%	37%[activator]
N#Cc1nc(-c2ccco2)oc1NCc1ccc(Cl)cc1	129%[activator]	45%[activator]

Remaining list, next part:
SMILES	2A Renilla	StopGo FLuc
CS(=O)(=O)NNc1ccc(S(N)(=O)=O)cc1[N+](=O)[O-]	10%	33%[activator]
Cc1cc(OCC(=O)Nc2nc3c(s2)CCCC3)cc(C)c1Cl	-12%	-16%
O=C(COC(=O)C1CCN(c2ccc(C(F)(F)F)cn2)CC1)Nc1ccc(C(F)(F)F)cc1	16%	0%
Cc1cc(C)cc(NC(=O)C(Sc2nnnn2C2CCCC2)c2ccccc2)c1 (stereo unspecified)	52%[activator]	14%
Cc1nc(-c2ccccc2)sc1C(=O)Nc1ccccc1	9%	0%
CCOc1ccc(CNC(=O)COc2cc(=O)n(C)c3ccccc23)cc1	2%	-11%
C[N+](C)(C)CCCCCCCCCC[N+](C)(C)C	4%	-8%[11.5 µM]
CCOC(=O)c1c(C)[nH]c(C)c1S(=O)(=O)N1CCCC(C(=O)NCc2ccc(C)cc2)C1 (stereo unspecified)	0%	-20%
COCCn1cnc2c1c(=O)n(CC(=O)Nc1cc(F)ccc1F)c(=O)n2Cc1ccccc1	9%	8%
CCCc1c(C(=O)NCCc2ccccc2)nnn1-c1ccccc1	-4%	95%[activator]
COc1cc(Cn2c(=O)sc3ccccc32)ccc1OC(C)C	0%	12%

Among those listed so far, these have an aryl methoxy group.
SMILES	2A Renilla	StopGo FLuc
CCOc1cc2c(cc1NC(=O)Cc1ccc(OC)cc1)OC(C)C2 (stereo unspecified)	0%	14%
COc1ccc(NC(=O)Cn2c(=O)n(Cc3ccc4c(c3)OCO4)c(=O)c3ccc(C(=O)NC4CCCCC4)cc32)cc1	-5%	-4%
COc1ccc(-c2onc(C)c2C)cc1S(=O)(=O)NC1CCC(C)CC1 (stereo unspecified)	5%	?
COc1cccc(NS(=O)(=O)c2ccc3[nH]cc(C(=O)N4CCCCCC4)c(=O)c3c2)c1	-11%	-11%
COc1ccc(Br)cc1/C=C(\C#N)C(N)=C(C#N)C#N	-1%	37%[activator]
COc1cc(OC)c(NC(=O)N2CCN(c3ccc(=O)n(-c4ccc(F)cc4)n3)CC2)cc1Cl	1%	11%
COc1ccc(-n2nnnc2C(C)(C)Nc2ccc(C)cc2)cc1OC	45%[activator]	-2%
COc1ccc(C(C)NC(=O)CCc2ncc(-c3c(F)cccc3F)o2)cc1F (stereo unspecified)	1%	6%
COc1cc2c(cc1OC)[C@H](C)N(C(=O)c1ccc(F)cc1)CC2	-3%	10%
COc1ccc(Cl)cc1NC(=O)Cn1c(=O)n2nc(-c3ccccc3)nc2c2ccccc21	-12%	-9%
CCn1nnc2cc(C(=O)Nc3ccc(OC)cc3)ccc21	-4%	121%[activator]
CCOc1ccc(NC(=O)c2cc3cc4cc(OC)ccc4nc3s2)cc1	-10%	-18%
CCOC(=O)c1ccc(NC(=O)c2ncoc2-c2cccc(OC)c2)cc1	10%	29%
COc1cccc(-c2nc(CS(=O)(=O)CC(=O)NCCCN3CCOCC3)c(C)o2)c1	14%	19%
COc1ccc(-c2nc(C)c(CCNC(=O)C(=O)Nc3ccc(F)cc3F)s2)cc1OC	-4%	27%
COc1cccc2cc(C(=O)Nc3ccccc3O)c(=O)oc12	12%	149%[activator]
COc1ccc(-c2nc3cc(C(C)C)ccc3o2)cc1NC(=O)COc1ccc(C)cc1C	-6%	10%
COc1ccc(Br)cc1CN1CCCC(C(=O)N2CCCCC2)C1 (stereo unspecified)	2%	1%
COc1ccc(-n2nc(C)c3c2NC(=O)CSC3c2cccc(O)c2)cc1 (stereo unspecified)	2%	11%
COc1ccc(Br)cc1CNC(=O)C(C)n1nc(C)n2c(cc3occc32)c1=O (stereo unspecified)	8%	0%
CCCCCN=C(N)N/N=C/c1c[nH]c2ccc(OC)cc12	-1%	-21%[11.5 µM]
COc1ccc(-c2nc(CS(=O)CC(=O)NCc3ccc(C)cc3)c(C)o2)cc1OC (stereo unspecified)	20%	8%
COc1ccc(CNC(=O)c2cccc(-n3cnc4cccnc43)c2C)cc1	-10%	-3%
COc1cc(Cn2c(=O)sc3ccccc32)ccc1OC(C)C	0%	12%

Screening results: PubChem BioAssay, National Center for Advancing Translational Sciences (NCATS)
